# Ba CapD inh: inhibitors of Bacillus anthracis CapD enzyme; purified CapD enzyme, fluorescence intensity read-out; active compounds read low; some hits fall short of the stated cut; z-score (test concentration not listed); 0.23% of 140,000 active;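 active = z-score under -4 in either of two replicates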;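 note: stock transfer was 100 nL into about 40 µL; score is relative to mean and spread of the plate; one replicate is shown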
# AID504770: growth inhibitors of E. coli YBA685 in a screen for V. cholerae RctB (chromosome II replication) inhibitors; AID 504770; 0.27% of 130,000 active; E. coli YBA685 rctB-dependent plasmid, OD600 growth, 3 h; active compounds read low; z-score (test concentration not listed);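 active = z-score under -2 on both plates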;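 note: wells of about 30 µL received 100 nL stock; score is relative to mean and SD of the test wells; the first replicate is given; strong numbers were not always called active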
# Active calls of the source: *; . = not tested or not shown; & = joins results of further samples. Only part of the results is shown; the hit share may differ from the screen's.
mol	Ba CapD inh	AID504770
COc1ccc2nc(N3CCCCC3)c(/C=C3\N=C(c4ccccc4)OC3=O)cc2c1	-0.335	0.15
COc1cc(OC)c(NC(=O)Cc2noc3ccc(C)cc23)cc1Cl	0.775	-0.4
Oc1c(C2=NCCNC(C(F)(F)F)=C2)ccc2ccccc12	-2.23	-1.05
OC1(c2ccccc2)CN2CCC1CC2 (centres undefined)	-0.375	0.05
COc1ccc(CCNC(=O)CNCC2CCCO2)cc1OC (centres undefined)	.	0.3
O=C(COC(=O)c1ccc(Br)o1)NC12CC3CC(CC(C3)C1)C2	.	-0.1
Cc1nn(-c2ccccc2)c2sc(C(=O)N(Cc3ccco3)C(C)C(=O)NC3CCCCC3)cc12 (centres undefined)	.	0.25
CC(=O)N(c1ccc(N(C(C)=O)S(=O)(=O)c2cccs2)cc1)S(=O)(=O)c1cccs1	-3.83	-0.8
COCCOC(=O)c1c(C)oc2ccc(OC(=O)c3ccc(Br)cc3)cc12	-0.065	.
O=c1oc2ccccc2cc1C1=Nn2c(nc3ccccc3c2=O)SC1	0.205	.
CCOC(=O)c1ccc(N2C(=O)CCC2=O)cc1	0.34	.
O=C(Cn1cnc2ccccc2c1=O)OCC(=O)c1c[nH]c2ccccc12	.	-0.85
COCCN1Cc2cccc(C(=O)Nc3ccc4nc(-c5cccnc5)[nH]c4c3)c2C1=O	0.585	-0.2
Cc1sc2ccccc2[n+]1C	0.425	.
CCOC(CNC(=O)c1cccs1)(OCC)c1ccccn1	-0.105	.
CCCC(=O)N=C1SC2CS(=O)(=O)CC2N1Cc1ccccc1 (centres undefined)	0.19	0.45
COc1ccc(-c2[nH]ncc2C(=O)NCCCc2ccccc2)cc1	-1.69	1.6
COc1ccc(F)c(CN2CCCC(COC(=O)N3CCN(c4cccc5[nH]ccc45)CC3)C2)c1 (centres undefined)	-0.735	.
Cc1cc2nc(-c3ccc(Cl)nc3)[nH]c2cc1C	35.8	1.25
Cc1cc(C2=NNC(=NCC3CCCO3)SC2)c(C)n1-c1ccc(OC(F)F)cc1 (centres undefined)	.	-0.1

# Record cards, from the list above. Order of values: Ba CapD inh | AID504770
# Record of COc1ccc(F)c(CN2CCCC(COC(=O)N3CCN(c4cccc5[nH]ccc45)CC3)C2)c1 (centres undefined) : -0.735 | .
# Record of O=C(Cn1cnc2ccccc2c1=O)OCC(=O)c1c[nH]c2ccccc12 : . | -0.85
# Record of COc1ccc(-c2[nH]ncc2C(=O)NCCCc2ccccc2)cc1 : -1.69 | 1.6
# Record of O=C(COC(=O)c1ccc(Br)o1)NC12CC3CC(CC(C3)C1)C2 : . | -0.1

# New compounds follow
mol	Ba CapD inh	AID504770
CCOc1ccccc1C1C(C#N)=C(N)Oc2n[nH]c(-c3cc(OC)c(OC)c(OC)c3)c21 (centres undefined)	-0.27	.
COc1ccccc1NC(=O)Cn1cnc2sc(C(=O)Nc3nc4ccc(Br)cc4s3)c(C)c2c1=O	0.32	.
CCOC(=O)c1c(NC(=O)C2(S(=O)(=O)c3ccccc3)CC2)sc(C)c1C	0.39	-0.6
O=C(O)CCC(=O)N1N=C(c2c(-c3ccccc3)c3cc(Br)ccc3[nH]c2=O)CC1c1ccc([N+](=O)[O-])cc1 (centres undefined)	0.745	.
CCOc1ccccc1OC(=O)c1ccccc1	0.12	-0.2
O=C(COC(=O)c1cc(Cl)nc(Cl)c1)NC(c1ccccc1)c1ccccc1	0.135	1
COc1cc2c(cc1OC)CN(C(=O)CCc1ccccc1)CC2	.	-1
COC(=O)c1ccc(S(=O)(=O)NCc2ccco2)o1	9.94	0.8
COc1ccc(Cc2nc3c4c5c(sc4ncn3n2)CCCC5)cc1OC	-0.245	.
COc1ccc2c(=S)c(-c3csc(C)n3)c(C)oc2c1	-0.38	-0.65
CNCCC=C1c2ccccc2CCc2ccccc21	8.93&0.055	0.6
Cc1nc2c(n1C1CCCCC1)C(=O)c1ccccc1C2=O	.	-0.25
O=C(Cn1c(SCc2cccc(C(F)(F)F)c2)nc2ccncc21)NCCC1=CCCCC1	0.6	0.2
CCOC(=O)COn1c(-c2ccc(Cl)cc2)nc2ccc([N+](=O)[O-])cc21	-0.12	.
O=C(CCSCc1ccc(Cl)cc1)N1CCN(c2ccccc2)CC1	0.095	-1.4
Cc1ccc(C2CC(c3cccs3)=NN2C(=O)CSc2nnc(CNC(=O)c3ccc([N+](=O)[O-])cc3)n2C)cc1 (centres undefined)	5.21	.
COc1ccc(N2CCN(C(CNS(=O)(=O)c3cccs3)c3cccnc3)CC2)cc1 (centres undefined)	.	-1.25
CC(C)CCN=CC1=C(O)CC(c2ccccc2)CC1=O (centres undefined)	1.33	-0.15
COC(=O)c1cc(NC(=O)COc2ccc3c(c2)OCO3)cc(C(=O)OC)c1	.	0.3
CCC(C(=O)NC1CCCC1)n1c(SCc2ccc(C)cc2)nc2ccncc21 (centres undefined)	0.27	-0.4

# (next part)
mol	Ba CapD inh	AID504770
O=C(Cc1ccc(S(=O)(=O)N2CCCCC2)cc1)Nc1cccnc1	.	1.4
N#CC(C#N)=C(Nc1ccc(Br)cc1)SCc1ccc(F)cc1	-0.85	0.9
O=C(O)c1ccc(NC(=O)C2C3C=CC(C3)C2C(=O)O)cc1 (centres undefined)	.	1.3
CCc1cc(-c2[nH]ncc2-c2ccc(OC)cc2)c(O)cc1OC	.	0.95
c1cncc(CNc2ccc3nncn3n2)c1	0.905	-0.6
CC(C)(C)NC(=O)Nc1c2ccccc2nc(=O)n1Cc1ccccc1	.	-0.55
O=C(Nc1ccccc1)c1nc(-c2ccccc2)n(-c2ccccc2)n1	-0.275	2.05
Cc1ccc(CNC(=S)NCCO)cc1	0.71	0.3
O=C(NC1CCCCC1)N1CCn2cccc2C1Cc1ccccc1 (centres undefined)	-0.385	0.65
Cc1cccc(Cl)c1OCCN1CCN(C)CC1	.	-1.2
O=C(NCCc1ccc(Cl)cc1)c1ccc2c(c1)ncn2C1CCCC1	-0.195	0.65
CC1(C)NC(=O)N(c2ccc([N+](=O)[O-])c(C(F)(F)F)c2)C1=O	-0.325	0.3
COc1ccc(C2CC(c3ccc(Cl)cc3)=NN2S(=O)(=O)c2ccccc2)cc1 (centres undefined)	-0.4	.
Cc1ccc(S(=O)(=O)C2(C(=O)NC3CCCCC3)CC2)cc1	-1.39	-0.15
O=C(Nc1ccccc1)Nc1ccc(Cl)cc1SCc1ccccc1	0.275	2.1
CCOC(=O)c1ccc(NC(=O)Cn2cc(C(=O)CC)c3ccccc32)cc1	-0.745	0.4
O=C(NC1(C(F)(F)F)Oc2ccccc2O1)C(F)(F)F	-0.265	2.2
CCCc1c(O)c2ccccc2[nH]c1=O	21.6	1.65
COc1ccccc1C(CCN)c1ccco1 (centres undefined)	-0.01	-0.75
CCOC(=O)N1CCN(C(=O)c2ccc(CS(=O)(=O)c3ccccc3OC)o2)CC1	-0.665	0.3

# Molecules shown so far with bromine (five):
mol	Ba CapD inh	AID504770
O=C(COC(=O)c1ccc(Br)o1)NC12CC3CC(CC(C3)C1)C2	.	-0.1
COCCOC(=O)c1c(C)oc2ccc(OC(=O)c3ccc(Br)cc3)cc12	-0.065	.
COc1ccccc1NC(=O)Cn1cnc2sc(C(=O)Nc3nc4ccc(Br)cc4s3)c(C)c2c1=O	0.32	.
O=C(O)CCC(=O)N1N=C(c2c(-c3ccccc3)c3cc(Br)ccc3[nH]c2=O)CC1c1ccc([N+](=O)[O-])cc1 (centres undefined)	0.745	.
N#CC(C#N)=C(Nc1ccc(Br)cc1)SCc1ccc(F)cc1	-0.85	0.9

# More compounds
mol	Ba CapD inh	AID504770
C=CCn1c(SCCC(=O)O)nnc1-c1cccs1	0.94	-0.75
CC(=O)Nc1cc2c(cc1[N+](=O)[O-])OCCOCCOc1cc(NC(C)=O)c([N+](=O)[O-])cc1OCCO2	0.085	.
S=C(Nc1cccc(Cl)c1)Nc1cccc(Cl)c1	-0.39	0.4
CCN(c1ccccc1)S(=O)(=O)c1ccc(-n2cnc3cc(C)c(C)cc32)nc1	.	-1.55
Cc1nc(N2CCN(c3ccccn3)CC2)c2c(C)c(C(=O)Nc3ccc(F)cc3)sc2n1	-0.685	.
COc1ccc(Cn2ccc3nc(C)c(C(=O)NCc4ccccc4)cc3c2=O)cc1	6.04	1.7
O=C1/C(=C/c2cn[nH]c2-c2ccc(F)cc2)CS/C1=C\c1cn[nH]c1-c1ccc(F)cc1	0.095	-0.25
Cn1nc(-c2ccccc2)c(C#N)c1Sc1cccc(C(F)(F)F)c1	-0.105	.
NC(CC(=O)Nc1ccc(Cl)cc1)C(=O)O (centres undefined)	2.21	0.65
CC(=O)C1C(=O)CC(c2ccc(Cl)cc2)CC1=O (centres undefined)	0.025	.
CC(C)NC(=S)NCCc1ccncc1	0.395	.
CCN1C(=O)c2cccc3c(NC(=O)c4ccc(S(=O)(=O)N(CC(C)C)CC(C)C)cc4)ccc1c23	-0.715	.
CCOc1ccc(CNc2ccc(N3CCCC3)cc2)cc1	-1.13	1.85
COc1cccc(C2N3CC4(C)CN2CC(C)(C3)C4=O)c1O (centres undefined)	0.055	.
Cc1onc(-c2ccccc2)c1C(=O)OCc1ccc(Cl)cc1	.	0
OC1(c2ccccc2)CCN(Cc2ccccc2)[C@@H]2CCCC[C@@H]21 (some centres undefined)	0.1	-0.35
CCCc1cc(O)c2c(C)cc(=O)oc2c1	1.16	-0.7
Cc1c(C)c(C)c(CSC(=S)N(C)C)c(C)c1C	-0.01	0.25
CCOC(=O)Nc1cc(C(=O)OC)cc(C(=O)OC)c1	.	-0.3
O=C(Nc1cccc(F)c1)C1COc2ccccc2O1 (centres undefined)	-0.37	-0.65

# (next part)
mol	Ba CapD inh	AID504770
O=C1NC(c2cccs2)Nc2c1sc(=S)n2-c1ccccc1 (centres undefined)	-1.5	-1.1
CCc1ccc(N(CC(=O)NC2CCCC2)S(=O)(=O)c2c(C)noc2C)cc1	0.315	-0.95
CCCN1CCC(NC(=O)Nc2cc(Cl)ccc2OC)CC1	-0.22	-0.75
Fc1ccc(C2=CSC3=NCCCN23)cc1F	0.685	-0.45
COc1cccc(NC(=O)c2c(C)cc(C)cc2CC(C)(C)C(=O)O)c1	-0.575	.
CCN(Cc1cc(OC)cc(OC)c1)C(=O)c1c(C(F)(F)F)ccnc1OC	0.31	-0.3
O=C(Nc1c2c(nc3ccccc13)CCCC2)c1ccccc1Cl	4.04	0
CCOc1ccc(C(=O)Nc2ccc3oc(-c4ccncc4)nc3c2)cc1Br	4.5	.
Cc1ccc(-c2cc(=O)c3ccccc3o2)cc1	1.67	-0.5
CCN=c1scc(-c2ccc3c(c2)NC(=O)CO3)n1/N=C/c1cccs1	.	0.6
Cn1cc(Br)c(-c2cccc(NC(=O)c3ccccc3Cl)c2)n1	0.385	-0.5
CCCCCCc1cc2c(-c3ccccc3)cc(=O)oc2cc1OCC(N)=O	0.635	.
COc1ccc(OCC(O)Cn2c(C(C)C)nc3ccccc32)cc1 (centres undefined)	.	-0.6
CCSc1nc(N)nc(C(C)C)n1	0.66	.
O=C(O)c1cccc(N2C(=O)c3ccc4c5c(ccc(c35)C2=O)C(=O)N(c2cccc(C(=O)O)c2)C4=O)c1	-0.66	.
CCOC(=O)N1CCC(NC(=O)CSc2nc3ccccc3n2S(C)(=O)=O)CC1	-0.12	.
O=C(c1nc(-c2cccnc2)no1)N1CCOCC1	-0.53	-1
O=C(/C=C\Nc1ccccn1)c1ccc(Cl)cc1	-0.705	2.1
O=c1cc(CO)oc(C(Nc2cccc(C(F)(F)F)c2)c2ccccn2)c1O (centres undefined)	-6.66*	-0.7
CC1CC(=O)Nc2ccccc2N1C=O (centres undefined)	0.08	-0.85

# More structures follow.
mol	Ba CapD inh	AID504770
N#CCCn1cc(C(=O)N(c2ccccc2)c2ccccc2)c(-c2ccccc2)n1	0.58	-0.45
Cc1oc2c(CN(C)C)c(O)ccc2c(=O)c1Oc1ccc2ccccc2c1	74.3	-0.65
CC(C)(C)C(=O)COC(=O)c1cc(=O)c2ccccc2o1	.	-0.55
O=C(NCc1ccccn1)c1cccc(C(F)(F)F)c1	-0.39	-0.85
N#CCc1nn2c(C(F)(F)F)cc(C(F)(F)F)nc2c1C#N	-0.615	-0.5
CN1C(=O)/C(=C/c2ccc(I)o2)C(=O)NC1=S	-9.73*	1.05
CN1c2ccccc2C(C)(C)C12Cc1cc(NS(=O)(=O)c3ccc(Cl)cc3)ccc1O2 (centres undefined)	64.5	-0.3
CCNc1ncnc2sc3c(c12)CCC3	.	1.95
CN(CCS(=O)(=O)c1ccc(Cl)cc1)Cc1cccnc1	-0.21	0.85
CCN(CC)S(=O)(=O)c1ccc(C(=O)OCCN2C(=O)CCC2=O)cc1	-0.11	1.15
O=C1NC(c2ccccc2)C(C(=O)c2ccccc2)C(O)(C(F)(F)F)N1 (centres undefined)	.	-0.7
O=C1/C(=C/c2ccc(N3CCOCC3)cc2)Cc2ccccc21	0.35	1.55
N#CCn1c(CSc2ccc3c(c2)OCCO3)nc2ccccc2c1=O	.	-0.45
CC(C)Sc1nc(-c2ccccc2)cc(=O)[nH]1	1.21	0.95
O=C1CSCC(=O)N1c1ccc2c(c1)OCO2	1.24	-0.3
N#CC1=C(SCC(N)=O)NC(=O)C(C#N)C1c1ccccc1Cl (centres undefined)	43.1	1.55
COc1cc(OC)nc(C2CCN(C(=O)C(C)(C)C)CC2)n1	-0.47	.
O=C(O)CC(c1ccc(Br)cc1)n1cccc1 (centres undefined)	0.16	0.25
CCOC(=O)N1CCC(N(CCN(C)C)C(=S)Nc2cc(C)ccc2C)CC1	0.325	1
O=C(CS(=O)(=O)c1cn(CC(=O)N2CCCC2)c2ccccc12)NCc1ccccc1	.	-0.65
